# Compound activity as filed in PubChem BioAssay.
# HIV Env fusion = inhibitors of HIV Env-mediated cell fusion | HeLa-JRFL Env/CEM21 cell fusion, luciferase | inhibition, % at 12.3 µM | 360,000 compounds, 1.1% hits;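 active = mean replicate inhibition score of at least 50 and every replicate individually at or above 50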;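 also: 0% = plate neutral controls and 100% = maraviroc near 300 nM; one replicate is shown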
# UUG fidelity = modulators of start codon recognition fidelity in yeast | S. cerevisiae UUG-firefly luciferase reporter, luminescence/redox ratio | activity score, % at 18.7 µM | 350,000 compounds, 0.13% hits | AID 602363;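 active = replicate mean at a twofold rise or more, about +100% in these data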;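 also: firefly luciferase made from a UUG start codon reports start codon fidelity; reporter light over untreated wells divided by growth signal over untreated wells; some hits fall short of that in this replicate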
# An asterisk follows results filed as active; & = joins results of further samples; [ ] = remark or other dose. A portion of the library, so the mix of outcomes need not match the whole.
HIV Env fusion	UUG fidelity	compound
-19.1[16.7 µM]	41.4	CC(C)NC(=O)N1[C@H](C#N)[C@H](c2ccc(C#CC3CCCC3)cc2)[C@H]1CO
-3.8[16.7 µM]	16.2	C[C@H](CO)N1C[C@H](C)[C@H](CN(C)C)Oc2cc(C#CCN(C)C)ccc2S1(=O)=O
22.3[16.7 µM]	26.8	C[C@H](CO)N1C[C@H](C)[C@@H](CN(C)Cc2ccc(C(=O)Nc3ccccc3N)cc2)Oc2c(NC(=O)C3CC3)cccc2C1=O
11.7[16.7 µM]	1.6	Cc1cccc(S(=O)(=O)N[C@H]2CC[C@H](CCNC(=O)CCN3CCCCC3)O[C@H]2CO)c1
9.8[16.7 µM]	-12.3	CCC(=O)Nc1ccc2c(c1)OC[C@H](C)N(C(=O)CN1CCOCC1)C[C@@H](C)[C@H](OC)CN(C)C2=O
-1.7[16.7 µM]	-7.5	CN(C)CCCNC(=O)C[C@H]1CC[C@@H](NS(=O)(=O)c2ccc(F)cc2)[C@@H](CO)O1
-2.7[16.7 µM]	-14.4	CCNC(=O)Nc1ccc2c(c1)C(=O)N(C)[C@@H]1CC[C@H](CC(=O)NCCOC)O[C@H]1CO2
34.1[16.7 µM]	-4.1	C[C@H](CO)N1C[C@H](C)[C@H](CN(C)C(=O)C2CCCCC2)Oc2ncc(-c3ccccc3F)cc2C1=O
-7.8[16.7 µM]	-5.9	CNC[C@@H]1OCCCC[C@@H](C)Oc2ccc(NC(=O)Nc3ccc(C(F)(F)F)cc3)cc2C(=O)N([C@H](C)CO)C[C@H]1C
-15.4[16.7 µM]	13.1	Cc1noc(C)c1S(=O)(=O)N(C)C[C@H]1OCCCC[C@H](C)Oc2ccc(NC(=O)C3CCCCC3)cc2C(=O)N([C@@H](C)CO)C[C@@H]1C
5.9[16.7 µM]	-9.5	C[C@H](CO)N1C[C@H](C)[C@@H](CN(C)CC2CCCC2)Oc2cc(C#CC(C)(C)O)ccc2S1(=O)=O
4.0[16.7 µM]	6.1	C[C@@H]1CN([C@H](C)CO)C(=O)c2cc(NC(=O)CCN3CCOCC3)ccc2O[C@H]1CN(C)C(=O)Nc1cccc2ccccc12
7.7[16.7 µM]	5.8	C[C@@H]1CN([C@@H](C)CO)C(=O)Cc2cc(NS(=O)(=O)c3ccc(F)cc3)ccc2O[C@H]1CN(C)C(=O)Nc1ccc(C(F)(F)F)cc1
-4.1[16.7 µM]	0.4	C[C@@H]1CN([C@H](C)CO)C(=O)c2cc(-c3cccc(F)c3)cnc2O[C@@H]1CN(C)Cc1cncnc1
67.4*[16.7 µM]	-5.3	COc1ccc(S(=O)(=O)N(C)C[C@@H]2Oc3ccc(NC(=O)Nc4ccc(C(F)(F)F)cc4)cc3C(=O)N([C@@H](C)CO)C[C@@H]2C)cc1
9.5[16.7 µM]	-3.8	Cc1noc(C)c1NC(=O)N(C)C[C@@H]1Oc2ccc(NC(=O)Nc3ccc4c(c3)OCO4)cc2CC(=O)N([C@@H](C)CO)C[C@@H]1C
0.6[16.7 µM]	-9.6	CCCNC(=O)N(C)C[C@H]1Oc2ncc(C#Cc3ccncc3)cc2C(=O)N([C@@H](C)CO)C[C@@H]1C
-6.9[16.7 µM]	-4.9	COc1ccc(-c2ccc([C@H]3[C@@H](C#N)N(C(=O)NC4CCCC4)[C@@H]3CO)cc2)cc1
2.8[16.7 µM]	21.8	CCC(=O)N(C)C[C@H]1Oc2cc(-c3ccccc3F)ccc2S(=O)(=O)N([C@@H](C)CO)C[C@H]1C
-5.4[16.7 µM]	-26.1	COc1ccc(S(=O)(=O)N(C)C[C@H]2OCCCC[C@@H](C)Oc3ccc(NC(=O)Nc4ccccc4)cc3C(=O)N([C@@H](C)CO)C[C@H]2C)cc1

# Continued.
HIV Env fusion	UUG fidelity	compound
16.2[16.7 µM]	5.3	CO[C@H]1CN(C)C(=O)c2ccc(NC(=O)Cc3ccccc3)cc2OC[C@@H](C)N(C)C[C@H]1C
-0.7[16.7 µM]	-18.8	Cc1ccc(S(=O)(=O)N[C@@H]2C=C[C@H](CC(=O)NCc3ccncn3)O[C@H]2CO)cc1
4.8[16.7 µM]	-1.9	CCS(=O)(=O)NCC[C@H]1CC[C@@H](NC(=O)Nc2cc(Cl)cc(Cl)c2)[C@@H](CO)O1
-3.7[16.7 µM]	7.2	C[C@@H]1CCCCO[C@@H](CN(C)S(C)(=O)=O)[C@@H](C)CN([C@@H](C)CO)C(=O)c2cc(NC(=O)C3CCCCC3)ccc2O1
2.2[16.7 µM]	2.4	C[C@@H]1CCCCO[C@H](CN(C)S(C)(=O)=O)[C@H](C)CN([C@@H](C)CO)C(=O)c2cc(NS(=O)(=O)c3cn(C)cn3)ccc2O1
-0.9[16.7 µM]	15.1	COc1ccc(S(=O)(=O)Nc2ccc3c(c2)C(=O)N([C@H](C)CO)C[C@H](C)[C@@H](CN(C)Cc2ccncc2)OCCCC[C@H](C)O3)cc1
-24.2[16.7 µM]	-16.7	COCC(=O)N[C@@H]1CC[C@H](CC(=O)NCc2ccccc2OC)O[C@@H]1CO
-11.1[16.7 µM]	-0.6	Cc1ccc(S(=O)(=O)NCC[C@@H]2CC[C@@H](NC(=O)NC(C)C)[C@H](CO)O2)cc1
10.0[16.7 µM]	-6.9	C[C@H]1CN([C@@H](C)CO)C(=O)Cc2cc(NC(=O)CCN3CCOCC3)ccc2O[C@@H]1CN(C)Cc1ccc2c(c1)OCO2
-97.4[16.7 µM]	-4.6	C[C@@H]1CN([C@H](C)CO)C(=O)Cc2cc(NC(=O)CCCCCC(=O)Nc3ccccc3N)ccc2O[C@H]1CN(C)S(=O)(=O)c1ccc(F)cc1
-25.3[16.7 µM]	-4.6	CCNC(=O)C[C@H]1CC[C@@H]2[C@@H](COc3ccc(NS(=O)(=O)c4ccccc4C)cc3C(=O)N2C)O1
-2.3[16.7 µM]	11.6	Cc1cc(C(=O)Nc2cccc3c2O[C@H](CN(C)C(=O)Nc2cccc4ccccc24)[C@H](C)CN([C@H](C)CO)C3=O)n(C)n1
-43.5[16.7 µM]	6.4	C[C@@H]1CCCCO[C@@H](CN(C)Cc2ccccc2)[C@@H](C)CN([C@@H](C)CO)C(=O)c2cc(NC(=O)CCC(F)(F)F)ccc2O1
0.8[16.7 µM]	-2.0	COCC#Cc1cnc2c(c1)C(=O)N([C@H](C)CO)C[C@H](C)[C@H](CN(C)C(=O)c1cccc(F)c1)O2
-1.5[16.7 µM]	2.1	Cc1noc(C)c1NC(=O)N[C@H]1CC[C@@H](CC(=O)NCCCN(C)C)O[C@@H]1CO
18.8[16.7 µM]	9.5	C[C@H](CO)N1C[C@H](C)[C@@H](CN(C)C(=O)C2CC2)Oc2cc(C#CC3CC3)ccc2S1(=O)=O
3.5[16.7 µM]	-12.0	CCC(=O)N[C@H]1CC[C@@H](CCn2cc(CN(C)C)nn2)O[C@H]1CO
-77.1[16.7 µM]	-5.0	C[C@@H]1CN([C@@H](C)CO)C(=O)c2cccc(NC(=O)C3CC3)c2O[C@@H]1CN(C)Cc1ccc(Oc2ccccc2)cc1
0.6[16.7 µM]	-6.7	CCC(=O)Nc1ccc2c(c1)C(=O)N(C)[C@@H]1CC[C@H](CC(=O)N3CCCCC3)O[C@@H]1CO2
5.7[16.7 µM]	-7.5	CCCN1C[C@@H](C)[C@@H](OC)CN(C)C(=O)c2ccc(NC(=O)C3CCC3)cc2OC[C@H]1C

# Carrying on.
HIV Env fusion	UUG fidelity	compound
-8.2[16.7 µM]	-1.3	C[C@H](CO)N1C[C@H](C)[C@H](CN(C)C(=O)c2ccccc2)Oc2ncc(C#CC3CC3)cc2C1=O
-2.0[16.7 µM]	16.6	COc1ccc(-c2ccc3c(c2)O[C@@H](CN(C)C(=O)c2ccccc2F)[C@H](C)CN([C@@H](C)CO)S3(=O)=O)cc1
0.6[16.7 µM]	19.4	CC(=O)Nc1ccc2c(c1)C(=O)N(C)[C@@H]1CC[C@H](CC(=O)NCC3CC3)O[C@H]1CO2
9.8[16.7 µM]	-3.5	C[C@H](CO)N1C[C@H](C)[C@H](CN(C)Cc2ccc(C(F)(F)F)cc2)Oc2c(NC(=O)Nc3ccc(C(F)(F)F)cc3)cccc2C1=O
-14.2[16.7 µM]	-9.2	COc1ccc(S(=O)(=O)N(C)C[C@H]2Oc3ccc(NS(=O)(=O)c4cn(C)cn4)cc3CC(=O)N([C@@H](C)CO)C[C@H]2C)cc1
-11.5[16.7 µM]	3.9	O=C(CN1CCOCC1)NCC[C@@H]1CC[C@@H](NC(=O)c2ccccc2F)[C@H](CO)O1
5.5[16.7 µM]	6.1	C[C@@H](O)C#Cc1cnc2c(c1)C(=O)N([C@@H](C)CO)C[C@H](C)[C@H](CN(C)C(=O)c1ccccc1F)O2
-27.2[16.7 µM]	12.6	C[C@H](CO)N1C[C@H](C)[C@H](CN(C)C(=O)Cc2ccccc2)Oc2cc(-c3ccccc3)ccc2S1(=O)=O
-11.5[16.7 µM]	-3.9	O=C(C[C@@H]1C=C[C@@H](NC(=O)C2CCC2)[C@@H](CO)O1)NC1CCC1
-5.9[16.7 µM]	-7.2	C[C@@H]1CN([C@@H](C)CO)C(=O)c2cc(C#Cc3ccc(F)cc3)cnc2O[C@H]1CN(C)Cc1ccccn1
1.4[16.7 µM]	-9.0	CN(C)C(=O)C[C@@H]1CC[C@@H](NC(=O)NC2CCCC2)[C@@H](CO)O1
-16.6[16.7 µM]	-2.2	CC(=O)N[C@@H]1CC[C@@H](CC(=O)NCC2CCCCC2)O[C@@H]1CO
13.2[16.7 µM]	-14.6	C[C@H](CO)N1C[C@H](C)[C@@H](CN(C)C(=O)Nc2ccc(C(F)(F)F)cc2)OCCCC[C@H](C)Oc2ccc(NC(=O)Nc3cccc4ccccc34)cc2C1=O
18.9[16.7 µM]	-1.9	C[C@H](CO)N1C[C@H](C)[C@@H](CN(C)C(=O)C2CCC2)Oc2cc(C#CCN(C)C)ccc2S1(=O)=O
-11.7[16.7 µM]	-10.2	C[C@H](CO)N1C[C@H](C)[C@@H](CN(C)C(=O)Nc2ccc3c(c2)OCO3)OCCCC[C@H](C)Oc2ccc(NS(=O)(=O)c3ccc(Cl)cc3)cc2C1=O
-13.6[16.7 µM]	-1.1	Cc1ccc(-c2ccc3c(c2)O[C@H](CN(C)S(C)(=O)=O)[C@H](C)CN([C@H](C)CO)S3(=O)=O)cc1
15.4&20.8[16.7 µM]	13.0&42.4	C[C@@H]1CCCCO[C@H](CN(C)Cc2ccc3c(c2)OCO3)[C@H](C)CN([C@@H](C)CO)C(=O)c2cc(NS(=O)(=O)c3cccs3)ccc2O1
-32.7[16.7 µM]	-2.7	N#C[C@@H]1[C@@H](c2ccc(C3=CCCC3)cc2)[C@H](CO)N1C(=O)c1cccc(F)c1
8.1[16.7 µM]	-5.2	COc1cccc(C#Cc2ccc([C@@H]3[C@H](C#N)N(C(=O)C4CCC4)[C@H]3CO)cc2)c1
6.4[16.7 µM]	-9.1	C[C@@H]1CN([C@H](C)CO)C(=O)c2cc(NC(=O)c3ccncc3)ccc2O[C@@H](C)CCCCO[C@H]1CN(C)S(=O)(=O)c1cn(C)cn1

# (next part)
HIV Env fusion	UUG fidelity	compound
11.8[16.7 µM]	41.0	CO[C@@H]1CN(C)C(=O)c2cc(NC(=O)NC(C)C)ccc2OC[C@@H](C)N(C(=O)CN(C)C)C[C@@H]1C
6.7[16.7 µM]	0.4	COc1cccc(S(=O)(=O)N(C)C[C@@H]2Oc3ncc(-c4cccc(C(=O)N(C)C)c4)cc3C(=O)N([C@@H](C)CO)C[C@@H]2C)c1
-18.8[16.7 µM]	30.8	CCC(=O)N(C)C[C@H]1Oc2cc(C#CCC3CCCC3)ccc2S(=O)(=O)N([C@@H](C)CO)C[C@@H]1C
8.3[16.7 µM]	-10.8	Cc1noc(C)c1S(=O)(=O)Nc1ccc2c(c1)CC(=O)N([C@H](C)CO)C[C@@H](C)[C@@H](CN(C)Cc1ccc3c(c1)OCO3)O2
33.8[16.7 µM]	5.2	C[C@H]1CN([C@@H](C)CO)C(=O)c2cc(-c3cccc(F)c3)cnc2O[C@@H]1CN(C)C(=O)C1CCCCC1
-16.5[16.7 µM]	-9.1	C[C@@H]1CN([C@@H](C)CO)S(=O)(=O)c2ccc(-c3ccncc3)cc2O[C@H]1CN(C)C(=O)Nc1ccc(F)cc1
-10.1[16.7 µM]	13.8	C[C@H](CO)N1C[C@H](C)[C@H](CN(C)C(=O)Cc2ccccc2)OCCCC[C@H](C)Oc2ccc(NC(=O)CCC(F)(F)F)cc2C1=O
4.2[16.7 µM]	-4.3	C[C@@H]1CN([C@@H](C)CO)C(=O)c2cc(C#CCN(C)C)cnc2O[C@H]1CN(C)C(=O)CCN1CCCCC1

# For reference, 8 of the compounds above.
HIV Env fusion	UUG fidelity	compound
-32.7[16.7 µM]	-2.7	N#C[C@@H]1[C@@H](c2ccc(C3=CCCC3)cc2)[C@H](CO)N1C(=O)c1cccc(F)c1
8.1[16.7 µM]	-5.2	COc1cccc(C#Cc2ccc([C@@H]3[C@H](C#N)N(C(=O)C4CCC4)[C@H]3CO)cc2)c1
6.4[16.7 µM]	-9.1	C[C@@H]1CN([C@H](C)CO)C(=O)c2cc(NC(=O)c3ccncc3)ccc2O[C@@H](C)CCCCO[C@H]1CN(C)S(=O)(=O)c1cn(C)cn1
11.8[16.7 µM]	41.0	CO[C@@H]1CN(C)C(=O)c2cc(NC(=O)NC(C)C)ccc2OC[C@@H](C)N(C(=O)CN(C)C)C[C@@H]1C
6.7[16.7 µM]	0.4	COc1cccc(S(=O)(=O)N(C)C[C@@H]2Oc3ncc(-c4cccc(C(=O)N(C)C)c4)cc3C(=O)N([C@@H](C)CO)C[C@@H]2C)c1
-18.8[16.7 µM]	30.8	CCC(=O)N(C)C[C@H]1Oc2cc(C#CCC3CCCC3)ccc2S(=O)(=O)N([C@@H](C)CO)C[C@@H]1C
8.3[16.7 µM]	-10.8	Cc1noc(C)c1S(=O)(=O)Nc1ccc2c(c1)CC(=O)N([C@H](C)CO)C[C@@H](C)[C@@H](CN(C)Cc1ccc3c(c1)OCO3)O2
33.8[16.7 µM]	5.2	C[C@H]1CN([C@@H](C)CO)C(=O)c2cc(-c3cccc(F)c3)cnc2O[C@@H]1CN(C)C(=O)C1CCCCC1
